Compound activity from PubChem BioAssay.
A1 apoptosis 2 – A1 inhibitors via caspase activation, primary screen, cell-based, luminescence, HTS, two replicates; AID 2465, 2010; 24,000 tested, under 10 active; caspase activation, % (concentration not given with the values); MEF A1-2A-BIM cells, caspase-Glo luminescence, 3 h; percent of clofoctol response, DMSO zero; in the data active = caspase activation above about 5.9%;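 also: wells of about 30 µL received 50 nL stock; the first replicate is given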
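system = A1-2A-BIM-expressing MEF cells | quantity = 2500 MEF cells/well | dosing = 50 nL compound per well, pinned | schedule = overnight cell settling, then 3 h compound exposure, 37 °C | signal = luminescence from DEVD-luciferin Caspase-Glo reagent, 1:1 in 50 mM HEPES, 1 h RT | read-out = Caspase-3/7 activation, seen as rise in luminescence signal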
Starred values were filed as active, the others as inactive. Only part of the results is shown; count on the stated rates, not on these rows.

SMILES | A1 apoptosis 2
Cc1noc(C)c1S(=O)(=O)Nc1ccc2c(c1)C(=O)N([C@H](C)CO)C[C@@H](C)[C@H](CN(C)C(=O)Nc1ccccc1)O2 | -0.6
CCCN(C)C[C@H]1OCCCC[C@H](C)Oc2ccc(NS(=O)(=O)c3ccc(C)cc3)cc2C(=O)N([C@H](C)CO)C[C@H]1C | 0.2
C[C@H](CO)N1C[C@H](C)[C@@H](CN(C)C(=O)Nc2cccc3ccccc23)Oc2c(NS(C)(=O)=O)cccc2C1=O | -0.2
C[C@H]1CN([C@@H](C)CO)C(=O)Cc2cc(NC(=O)NC3CCCCC3)ccc2O[C@H]1CN(C)C(=O)NC1CCCCC1 | -0.1
COc1ccc(NC(=O)Nc2cccc3c2O[C@@H](CN(C)C(=O)Nc2ccc(C(F)(F)F)cc2)[C@H](C)CN([C@@H](C)CO)C3=O)cc1 | -0.1
Cc1noc(C)c1NC(=O)N(C)C[C@H]1Oc2ccc(NC(=O)Nc3ccc4c(c3)OCO4)cc2CC(=O)N([C@H](C)CO)C[C@@H]1C | 0.0
Cc1cc(C(=O)Nc2cccc3c2O[C@H](CN(C)Cc2ccncc2)[C@@H](C)CN([C@H](C)CO)C3=O)n(C)n1 | -0.2
Cc1ccc(/C=N/NC(=O)c2ccccn2)o1 | -4.1
C[C@@H]1CN([C@H](C)CO)C(=O)Cc2cc(NC(=O)CCCCCC(=O)Nc3ccccc3N)ccc2O[C@@H]1CN(C)S(=O)(=O)c1cccs1 | 0.1
Cc1noc(C)c1S(=O)(=O)N(C)C[C@@H]1OCCCC[C@H](C)Oc2ccc(NC(=O)NC3CCCCC3)cc2C(=O)N([C@@H](C)CO)C[C@H]1C | 2.9
C[C@H]1CCCCO[C@@H](CN(C)C(=O)CCC(F)(F)F)[C@@H](C)CN([C@@H](C)CO)C(=O)c2cc(NC(=O)c3ccccc3)ccc2O1 | -0.5
CNC[C@@H]1Oc2c(NS(=O)(=O)c3ccc(Cl)cc3)cccc2C(=O)N([C@H](C)CO)C[C@H]1C | -2.2
Cc1cccc(CN(C)C[C@@H]2Oc3ncc(-c4cccc(F)c4)cc3C(=O)N([C@H](C)CO)C[C@@H]2C)c1 | 1.7
Cc1noc(C)c1S(=O)(=O)Nc1ccc2c(c1)C(=O)N([C@@H](C)CO)C[C@@H](C)[C@H](CN(C)Cc1ccncc1)OCCCC[C@H](C)O2 | -0.7
C[C@H]1CN([C@@H](C)CO)C(=O)c2cccc(NC(=O)c3ccc(-c4nccs4)cc3)c2O[C@@H]1CN(C)Cc1ccc(C(F)(F)F)cc1 | 0.7
CC(C)NC(=O)N(C)C[C@H]1Oc2ccc(NC(=O)NC3CCCCC3)cc2CC(=O)N([C@@H](C)CO)C[C@H]1C | 0.2
Cc1ccc(S(=O)(=O)N(C)C[C@@H]2OCCCC[C@@H](C)Oc3ccc(NC(=O)Nc4ccc(C(F)(F)F)cc4)cc3C(=O)N([C@@H](C)CO)C[C@H]2C)cc1 | -0.1
C[C@@H]1CN([C@@H](C)CO)C(=O)c2cccc(NC(=O)Nc3ccccc3)c2O[C@H]1CN(C)S(=O)(=O)c1cccs1 | -0.5
COc1ccc(S(=O)(=O)Nc2cccc3c2O[C@H](CN(C)Cc2ccc(Cl)c(Cl)c2)[C@@H](C)CN([C@H](C)CO)C3=O)cc1 | -0.1
Cc1noc(C)c1NC(=O)N(C)C[C@@H]1Oc2ccc(NC(=O)Nc3cccc4ccccc34)cc2C(=O)N([C@H](C)CO)C[C@@H]1C | 1.5
COc1ccc(S(=O)(=O)N(C)C[C@H]2Oc3c(NC(=O)C4CCOCC4)cccc3C(=O)N([C@@H](C)CO)C[C@@H]2C)cc1 | 0.1
CC1=C(C/C=N/NC(=O)c2ccccn2)C(C)(C)CCC1 | -0.3
C[C@H]1CN([C@@H](C)CO)C(=O)c2cccc(N(C)C)c2O[C@@H]1CN(C)C(=O)Nc1ccc2c(c1)OCO2 | 0.6
CC(C)NC(=O)N(C)C[C@H]1OCCCC[C@H](C)Oc2ccc(NS(=O)(=O)c3ccccc3)cc2C(=O)N([C@@H](C)CO)C[C@@H]1C | 1.0
CCCC(O)C#Cc1cnc2c(c1)C(=O)N([C@H](C)CO)C[C@H](C)[C@H](CN(C)C(=O)Nc1ccc3c(c1)OCO3)O2 (stereo partly drawn) | 1.1
C[C@H]1CN([C@@H](C)CO)C(=O)Cc2cc(NS(=O)(=O)c3ccccc3)ccc2O[C@H]1CN(C)C(=O)Nc1ccc(F)cc1 | -0.2
Cc1noc(C)c1NC(=O)N(C)C[C@@H]1Oc2ccc(NS(C)(=O)=O)cc2C(=O)N([C@H](C)CO)C[C@@H]1C | 0.4
CNC[C@@H]1OCCCC[C@@H](C)Oc2ccc(NS(=O)(=O)c3cn(C)cn3)cc2C(=O)N([C@@H](C)CO)C[C@@H]1C | -0.2
CC(C)NC(=O)Nc1ccc2c(c1)C(=O)N([C@H](C)CO)C[C@@H](C)[C@@H](CN(C)C(=O)Nc1cccc3ccccc13)O2 | -0.8
C[C@@H]1CN([C@H](C)CO)C(=O)c2cc(NS(=O)(=O)c3ccccc3)ccc2O[C@H]1CN(C)S(=O)(=O)c1ccc(F)cc1 | -1.1

Structural class, the entries above with a thiophene ring, fused or not
SMILES | A1 apoptosis 2
C[C@@H]1CN([C@H](C)CO)C(=O)Cc2cc(NC(=O)CCCCCC(=O)Nc3ccccc3N)ccc2O[C@@H]1CN(C)S(=O)(=O)c1cccs1 | 0.1
C[C@@H]1CN([C@@H](C)CO)C(=O)c2cccc(NC(=O)Nc3ccccc3)c2O[C@H]1CN(C)S(=O)(=O)c1cccs1 | -0.5

Other entries.
SMILES | A1 apoptosis 2
C[C@H](CO)N1C[C@H](C)[C@H](CN(C)Cc2ccc(Oc3ccccc3)cc2)Oc2c(NC(=O)c3cnccn3)cccc2C1=O | -0.5
C[C@H](CO)N1C[C@H](C)[C@@H](CN(C)C)Oc2ccc(NC(=O)Nc3ccc(F)cc3)cc2CC1=O | 0.5
C[C@H]1CN([C@@H](C)CO)C(=O)c2cccc(NC(=O)Nc3ccc(C(F)(F)F)cc3)c2O[C@@H]1CN(C)C(=O)Nc1ccc(C(F)(F)F)cc1 | -0.2
C[C@H](CO)N1C[C@H](C)[C@@H](CN(C)S(=O)(=O)c2cccs2)OCCCC[C@H](C)Oc2ccc(NC(=O)CCCN(C)C)cc2C1=O | -0.5
Cc1noc(C)c1S(=O)(=O)N(C)C[C@H]1Oc2ccc(NC(=O)c3ccncc3)cc2CC(=O)N([C@H](C)CO)C[C@H]1C | -1.2
Cc1noc(C)c1NC(=O)N(C)C[C@H]1OCCCC[C@@H](C)Oc2ccc(N(C)C)cc2C(=O)N([C@@H](C)CO)C[C@@H]1C | 0.3
Cc1noc(C)c1S(=O)(=O)Nc1ccc2c(c1)C(=O)N([C@H](C)CO)C[C@H](C)[C@H](CN(C)C(=O)Nc1cccc3ccccc13)OCCCC[C@H](C)O2 | 0.4
C[C@H]1CN([C@@H](C)CO)C(=O)Cc2cc(NC(=O)CCN3CCOCC3)ccc2O[C@@H]1CN(C)Cc1ccc(C(F)(F)F)cc1 | 0.1
Cc1noc(C)c1NC(=O)N(C)C[C@@H]1Oc2c(NC(=O)c3cnccn3)cccc2C(=O)N([C@H](C)CO)C[C@@H]1C | 0.3
C[C@@H]1CN([C@@H](C)CO)C(=O)Cc2cc(NS(=O)(=O)c3ccccc3)ccc2O[C@@H]1CN(C)Cc1ccc(C(F)(F)F)cc1 | 0.0
CC(C)NC(=O)Nc1ccc2c(c1)C(=O)N([C@@H](C)CO)C[C@@H](C)[C@H](CN(C)C(=O)c1ccncc1)OCCCC[C@@H](C)O2 | -1.2
C[C@@H]1CCCCO[C@@H](CN(C)S(=O)(=O)c2ccccc2)[C@H](C)CN([C@H](C)CO)C(=O)c2cc(NC(=O)CCCN(C)C)ccc2O1 | 0.1
C[C@@H]1CN([C@H](C)CO)C(=O)c2cc(NS(C)(=O)=O)ccc2O[C@H]1CN(C)Cc1ccc2c(c1)OCO2 | -0.5
CC(C)OC(=O)N(C)C[C@@H]1OCc2cnnn2CCCC(=O)N([C@H](C)CO)C[C@H]1C | -0.1
C[C@H](CO)N1C[C@H](C)[C@@H](CN(C)Cc2ccc3c(c2)OCO3)Oc2c(NS(=O)(=O)c3cn(C)cn3)cccc2C1=O | -0.4
C[C@@H]1CN([C@H](C)CO)C(=O)c2cccc(NS(=O)(=O)c3cn(C)cn3)c2O[C@H]1CN(C)Cc1ccc(C(F)(F)F)cc1 | -0.6
COc1ccc(NC(=O)N(C)C[C@@H]2Oc3ccc(NC(=O)Nc4c(C)noc4C)cc3CC(=O)N([C@H](C)CO)C[C@H]2C)cc1 | 0.0
C[C@H]1CN([C@@H](C)CO)C(=O)c2cc(NC(=O)NC3CCCCC3)ccc2O[C@@H]1CN(C)S(=O)(=O)c1ccccc1 | -0.1
C[C@@H]1CN([C@@H](C)CO)C(=O)c2cccc(NS(=O)(=O)c3ccccc3)c2O[C@@H]1CN(C)CC1CCCCC1 | 1.8
COc1ccc(S(=O)(=O)Nc2ccc3c(c2)CC(=O)N([C@@H](C)CO)C[C@H](C)[C@H](CN(C)Cc2ccc(C(=O)Nc4ccccc4N)cc2)O3)cc1 | 0.3
C[C@H](CO)N1C[C@H](C)[C@H](CN(C)Cc2ccccc2)Oc2ccc(NC(=O)Cn3cnnn3)cc2C1=O | -0.2
C[C@@H]1CN([C@H](C)CO)C(=O)c2cccc(NC(=O)Nc3cccc4ccccc34)c2O[C@@H]1CN(C)Cc1ccc2c(c1)OCO2 | -1.3
C[C@H]1CN([C@@H](C)CO)C(=O)c2cc(NC(=O)c3ccncc3)ccc2O[C@H]1CN(C)C(=O)NC1CCCCC1 | -0.5
COc1ccc(S(=O)(=O)Nc2ccc3c(c2)CC(=O)N([C@H](C)CO)C[C@H](C)[C@H](CN(C)S(=O)(=O)c2ccc(C)cc2)O3)cc1 | -1.0
C[C@@H]1CCCCO[C@H](CN(C)C)[C@@H](C)CN([C@@H](C)CO)C(=O)c2cc(NC(=O)c3ccncc3)ccc2O1 | -0.5
C[C@H](CO)N1C[C@H](C)[C@H](CN(C)S(=O)(=O)c2cccs2)Oc2c(NC(=O)c3ccc(-c4nccs4)cc3)cccc2C1=O | 0.8
C[C@@H]1CN([C@@H](C)CO)C(=O)Cc2cc(NC(=O)C3CCCCC3)ccc2O[C@H]1CN(C)CC1CCCCC1 | -1.2
C[C@@H]1CN([C@@H](C)CO)C(=O)c2cc(NS(=O)(=O)c3ccc(F)cc3)ccc2O[C@@H]1CN(C)C | 0.5
Cc1ccc(OC(=O)N(C)C[C@H]2OCc3cn(nn3)CCCC(=O)N([C@H](C)CO)C[C@@H]2C)cc1 | 1.6
OC(CSc1ccccn1)CC(O)c1ccccc1 (stereo not drawn) | -0.6
O=C(CCCCC(=O)N/N=C/c1cccc(Oc2ccccc2)c1)NO | -0.2
C[C@H]1CCCCO[C@H](CN(C)C(=O)c2ccncc2)[C@@H](C)CN([C@@H](C)CO)C(=O)c2cc(N(C)C)ccc2O1 | -0.3
C[C@@H]1CCCCO[C@@H](CN(C)S(=O)(=O)c2ccccc2)[C@H](C)CN([C@@H](C)CO)C(=O)c2cc(NC(=O)Nc3ccc4c(c3)OCO4)ccc2O1 | -0.6
CC(C)NC(=O)Nc1ccc2c(c1)C(=O)N([C@H](C)CO)C[C@@H](C)[C@@H](CN(C)C(=O)c1ccncc1)OCCCC[C@H](C)O2 | 0.2
C[C@@H]1CCCCO[C@@H](CN(C)Cc2ccccc2)[C@@H](C)CN([C@H](C)CO)C(=O)c2cc(NS(=O)(=O)c3ccccc3)ccc2O1 | 0.3
Cc1noc(C)c1NC(=O)Nc1ccc2c(c1)CC(=O)N([C@@H](C)CO)C[C@H](C)[C@@H](CN(C)Cc1ccc(Cl)c(Cl)c1)O2 | 0.6
C[C@@H]1CN([C@H](C)CO)C(=O)c2cccc(NC(=O)C3CCOCC3)c2O[C@H]1CN(C)Cc1ccc(Cl)c(Cl)c1 | -0.9
C[C@H](CO)N1C[C@H](C)[C@@H](CN(C)C(=O)Nc2ccc(F)cc2)OCCCC[C@H](C)Oc2ccc(NC(=O)CCC(F)(F)F)cc2C1=O | -0.3
Cc1noc(C)c1NC(=O)Nc1ccc2c(c1)CC(=O)N([C@@H](C)CO)C[C@@H](C)[C@@H](CN(C)C(=O)Nc1ccc(C(F)(F)F)cc1)O2 | 1.0
C[C@H]1CN([C@@H](C)CO)C(=O)Cc2cc(NC(=O)CCCCCC(=O)Nc3ccccc3N)ccc2O[C@@H]1CN(C)CC1CC1 | 0.5
COc1ccc(CN(C)C[C@H]2Oc3ccc(NC(=O)Nc4ccc5c(c4)OCO5)cc3CC(=O)N([C@@H](C)CO)C[C@@H]2C)cc1 | 0.4
C[C@H](CO)N1C[C@H](C)[C@H](CN(C)Cc2ccc3c(c2)OCO3)OCCCC[C@H](C)Oc2ccc(NS(=O)(=O)c3ccc(F)cc3)cc2C1=O | 0.4
C[C@H](CO)N1C[C@H](C)[C@@H](CN(C)S(=O)(=O)c2ccccc2)Oc2ccc(N(C)C)cc2C1=O | -1.1

Retrieved by compound from the list above:
SMILES | A1 apoptosis 2
Cc1noc(C)c1NC(=O)Nc1ccc2c(c1)CC(=O)N([C@@H](C)CO)C[C@H](C)[C@@H](CN(C)Cc1ccc(Cl)c(Cl)c1)O2 | 0.6
C[C@@H]1CCCCO[C@@H](CN(C)S(=O)(=O)c2ccccc2)[C@H](C)CN([C@@H](C)CO)C(=O)c2cc(NC(=O)Nc3ccc4c(c3)OCO4)ccc2O1 | -0.6
Cc1noc(C)c1NC(=O)Nc1ccc2c(c1)CC(=O)N([C@@H](C)CO)C[C@@H](C)[C@@H](CN(C)C(=O)Nc1ccc(C(F)(F)F)cc1)O2 | 1.0
C[C@@H]1CN([C@H](C)CO)C(=O)c2cccc(NC(=O)C3CCOCC3)c2O[C@H]1CN(C)Cc1ccc(Cl)c(Cl)c1 | -0.9
